Bm FixLJ act: increases Burkholderia fixLJ two-component signaling; z-score (test concentration not listed); B. multivorans fixK-promoter GFP reporter, 18 h; active compounds read high; AID 1918990; 29,000 tested, 0.3% active;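 active = replicate mean overnight rise in green fluorescent reporter signal, 3 or more SD over negative controls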;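 note: score is relative to vehicle wells of the plate; 300 nL library stock went into each well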
* = called active by the depositor; & = joins results of further samples. An excerpt; count on the stated rates, not on these rows.

SMILES	Bm FixLJ act
CCOc1ccc(NC(=O)N2CCOCC(CN(C)C)C2)c(F)c1 (stereo not drawn)	1.46
CNCC1CCN(C(=O)C2OCC(=O)NC2c2ccccc2)CC1 (stereo not drawn)	1.44
Cc1cccc(C(=O)Nc2cc3nn(-c4ccc(C(C)C)cc4)nc3cc2C)c1	-2.39
Cn1cc(C(=O)NCCc2ccc(Cl)cc2)c(=O)c2cc(S(=O)(=O)N3CCCCC3)ccc21	-0.04
Cc1cc2nn(-c3ccc(F)cc3)nc2cc1NC(=O)c1ccc(C(C)(C)C)cc1	-3.14
CCOC(=O)c1cc2c(=O)n3ccccc3nc2n(C(C)C)c1=NC(=O)c1c(-c2c(F)cccc2Cl)noc1C	2.13
O=C(Nc1ccc(S(=O)(=O)N2CCCCCC2)cc1)c1cc(=O)c2ccccc2o1	-1.44
CC(=O)N1CCc2c(sc3c2c(=O)n(Cc2ccccc2)c(=O)n3Cc2ccccc2Cl)C1	0.44
COc1cc(C2c3c(-c4c(C)cc(C)cc4O)n[nH]c3C(=O)N2Cc2ccco2)cc(OC)c1OC (stereo not drawn)	0.5
CSc1ccc(-c2nc3cccc(C)n3c2Nc2ccc(Cl)cc2)cc1	-0.22
CCOC(=O)c1cc2c(=O)n3ccccc3nc2n(CC2CCCO2)c1=NC(=O)c1cccc(C(F)(F)F)c1 (stereo not drawn)	0.67
CCCc1cc(C(=O)NCC(O)COc2ccc(Cl)c(C)c2)no1 (stereo not drawn)	-0.99
CC1=C(C(=O)Nc2ccc(Cl)cc2)C(c2ccccc2F)n2nc(SCc3cccc(Cl)c3)nc2N1 (stereo not drawn)	0.64
COc1ccccc1CNC(=O)CS(=O)Cc1nc(-c2ccc(OC)c(OC)c2)oc1C (stereo not drawn)	-1.27
CCOC(=O)c1ccc(NC(=O)NCCNS(C)(=O)=O)cc1	0.18
Cc1ccc(-n2c(=O)c3ccc(C(=O)NCc4ccccc4Cl)cc3n(CC(=O)Nc3ccc(C)cc3C)c2=O)cc1	-1.12
Cc1nc2scc(C)n2c(=O)c1S(=O)(=O)Nc1ccc(N2CCOCC2)c(Cl)c1	-0.52
CCOc1ccccc1NC(=O)N1CCC2(CC1)Oc1ccccc1C(=O)N2Cc1ccccc1F	-1.09
COc1ccc(CN(C)C(=O)NCC2CCCO2)c2cccnc12 (stereo not drawn)	-0.77
CCC(NC(=O)CCCc1ccc(OC)cc1)c1cccc(C)n1 (stereo not drawn)	0.09
CCc1noc(CCn2ccnc2-c2ccc(-c3ccn[nH]3)s2)n1	-0.84
CC(NC(=O)c1cc2c([nH]c1=O)CCC2)c1nnc(N)s1 (stereo not drawn)	0.88
Cc1ccc(CN(Cc2ccco2)C(=O)c2oc3cc(Br)ccc3c2C)cc1	-0.82
CCc1cc(NC2CC(=O)N(CCOC)C2)n2nc(C)c(C)c2n1 (stereo not drawn)	-1.08
Cc1cc(Cl)ccc1NC(=O)N1C[C@H]2COCC[C@@]2(O)[C@@H]2COCC[C@H]21	0.99
Cc1cc(C)nc(CN(C)C(=O)NCCC2CCCOC2)c1 (stereo not drawn)	-1.73
CCOC(=O)CC(NC(=O)Cn1nnc(-c2ccc(C(F)(F)F)cc2)n1)c1ccc(OC)cc1 (stereo not drawn)	-0.25
Cc1ccc(-c2nc3c(c(SCC(=O)Nc4cccc(C(=O)O)c4)n2)Cc2cccc(C)c2O3)cc1	-3.43
Cc1ccc(-c2nnc(Nc3ccc(Cl)cc3)c3ccccc23)cc1S(=O)(=O)NCC1CCCO1 (stereo not drawn)	0.21
Cc1ccc(C)c(N2CCN(C(=O)CCC(=O)Nc3ccc4nc(N5CCCCC5)cc(C)c4c3)CC2)c1	-0.59

A run of entries from further up, as a working copy:
SMILES	Bm FixLJ act
CC(NC(=O)c1cc2c([nH]c1=O)CCC2)c1nnc(N)s1 (stereo not drawn)	0.88
Cc1ccc(CN(Cc2ccco2)C(=O)c2oc3cc(Br)ccc3c2C)cc1	-0.82

(further entries)
SMILES	Bm FixLJ act
CN(CCc1ccccc1)C1(C(=O)NCC(C)(C)CO)Cc2ccccc2C1	-0.07
O=C(NCc1ccco1)c1ccc2c(c1)N(Cc1c(F)cccc1Cl)C(=O)c1ccccc1S2	-0.84
COc1ccc(CCN2C(=O)N(c3ccccc3)C(=O)C2CC(=O)Nc2ccccc2)cc1 (stereo not drawn)	-1.4
CC(=O)NC1CCN(Cc2nc(-c3sccc3C)oc2C)CC1	-0.24
Cc1nn(-c2ccccc2)c(-n2cccc2)c1C(=O)NCc1ccccc1Cl	-1.12
Cc1ncccc1C(=O)N1CCn2nc(C(O)C3CC3)cc2C1 (stereo not drawn)	1.15
CCCCn1c(=N)n(CCCOc2ccc(F)cc2)c2ccccc21	0.14
COc1ccc2c(c1)CCOC21CCN(C(=O)c2cncc(Cl)c2)CC1	-4.13
COc1cccc(NC(=O)C(Cc2ccccc2)NS(=O)(=O)c2ccc3c(c2)oc(=O)n3C)c1 (stereo not drawn)	0.47
CCCCN(CC)CCCNC(=O)Cn1ncc2c3ccccc3n(Cc3ccc(F)cc3)c2c1=O	-3.43
CCOC(=O)c1cc2c(=O)n3ccccc3nc2n(Cc2ccco2)c1=NC(=O)c1c(F)cccc1Cl	0.56
Cc1ccc(-c2nc(CS(=O)(=O)CC(=O)NC(C)CCc3ccccc3)c(C)o2)cc1 (stereo not drawn)	-1.77
CCSCCC(=O)NCc1cc2n(n1)CCCN(C1CCCCC1)C2	-0.3
Fc1ccc(CNc2nc3ccc(Cl)cc3n3nnnc23)cc1	-1.67
COc1ccccc1NC(=O)c1cccc(S(=O)(=O)N2CCCCCC2)c1	-0.76

2 entries drawn at random from those above, as already listed:
SMILES	Bm FixLJ act
CCCCN(CC)CCCNC(=O)Cn1ncc2c3ccccc3n(Cc3ccc(F)cc3)c2c1=O	-3.43
Cc1ncccc1C(=O)N1CCn2nc(C(O)C3CC3)cc2C1 (stereo not drawn)	1.15

Given with each value named: part of the list above
Cc1ccc(-c2nnc(Nc3ccc(Cl)cc3)c3ccccc23)cc1S(=O)(=O)NCC1CCCO1 (stereo not drawn)
  Bm FixLJ act: 0.21
Cc1ccc(C)c(N2CCN(C(=O)CCC(=O)Nc3ccc4nc(N5CCCCC5)cc(C)c4c3)CC2)c1
  Bm FixLJ act: -0.59
CN(CCc1ccccc1)C1(C(=O)NCC(C)(C)CO)Cc2ccccc2C1
  Bm FixLJ act: -0.07
O=C(NCc1ccco1)c1ccc2c(c1)N(Cc1c(F)cccc1Cl)C(=O)c1ccccc1S2
  Bm FixLJ act: -0.84

(list continues)
SMILES	Bm FixLJ act
CCCCCn1c(=O)[nH]c2cc(C(=O)NC(C)CC)ccc2c1=O (stereo not drawn)	0.19
CCOC(=O)C1CCN(C(=O)Cn2nc(CC)n3c(cc4occc43)c2=O)CC1	-0.9
Cc1nc(CCNC(=O)C(c2ccccc2)n2cnnn2)nc2c1CCC2 (stereo not drawn)	-1.49
COc1ccc(C[C@H](N)C(=O)N[C@@H]2[C@@H](CO)OC(n3cnc4c(N(C)C)ncnc43)[C@@H]2O)cc1 (stereo partly drawn)	-0.83
CC(C)(C)c1oc(C(N)=O)cc1CN1CCCCC1c1nccs1 (stereo not drawn)	-3.9
COc1ccc(NC(=O)c2nnn(Cc3nc(-c4cc(OC)c(OC)c(OC)c4)oc3C)c2C)cc1	-0.92
COc1ccc(NC(=O)C2CCN(S(=O)(=O)c3c(C)noc3/C=C/c3ccco3)CC2)cc1	-1.26
O=C(Cn1ncc2c3ccccc3n(Cc3ccccc3F)c2c1=O)NCCCc1ccccc1	-1.69
CCCCc1c(C)nc2c(-c3ccc(Cl)cc3)c(C)[nH]n2c1=O	-0.81
O=C(Cn1c(=O)n(Cc2ccco2)c(=O)c2sc3ccccc3c21)Nc1ccccc1C(F)(F)F	-0.27
Cc1cc(C)n2nc(SCC(=O)Nc3cccc(C(F)(F)F)c3)nc2n1	0.07
O=C(Nc1ccccc1Cl)c1sc2cccc(Cl)c2c1Cl	-0.74
CN(C(=O)Cn1c(=O)n(CCC(=O)NCc2ccc3c(c2)OCO3)c(=O)c2sccc21)c1ccccc1	-1.52
CCOc1ccc(/C=C/c2nc(C#N)c(N3CCCCCC3)o2)cc1	1.51
Cc1ccc(CCNC(=O)c2ccc3c(c2)N(Cc2ccccc2)C(=O)c2ccccc2S3=O)cc1 (stereo not drawn)	-1.74

Taken from above:
`CCCCc1c(C)nc2c(-c3ccc(Cl)cc3)c(C)[nH]n2c1=O` in Bm FixLJ act → -0.81
`O=C(Cn1ncc2c3ccccc3n(Cc3ccccc3F)c2c1=O)NCCCc1ccccc1` in Bm FixLJ act → -1.69

Continuation.
SMILES	Bm FixLJ act
O=C(Cn1c(=O)n(Cc2cccs2)c(=O)c2cccnc21)Nc1ccccc1F	-0.65
COc1cc(C(=O)Nc2cc(C)c3nc(N)sc3c2)ccn1	-1.62
O=C(Cn1c(=O)nc(-c2ccccc2)c2cc(Cl)ccc21)NCc1ccc(Cl)cc1	-1.2
Cc1cc(C)c(NC(=O)Nc2sc3nc4n(c(=O)c3c2C)CCC(C)CC4)c(C)c1 (stereo not drawn)	-4.01
CC(=O)N1CCc2nc3sc(C(=O)Nc4ccc(Cl)cc4F)c(N)c3c(C(F)(F)F)c2C1	-0.57
COc1ccccc1NC(=O)C1=C(C)Nc2nc(SC)nn2C1c1ccccc1Cl (stereo not drawn)	-1.57
Cc1ccc(N2CCN(C(=O)c3cn(C)c4ccc(S(=O)(=O)N5CCCC5)cc4c3=O)CC2C)cc1 (stereo not drawn)	0.38
CC(CCNc1cc(-c2ccccc2F)nc2ccnn12)n1ccnc1 (stereo not drawn)	1.48
CC(O)(P(=O)(O)O)P(=O)(O)O	-1.29&1.42
COc1ccc(/C=C\c2onc(C)c2S(=O)(=O)N2CCC(C(=O)Nc3cccc(OC)c3)CC2)cc1	-0.33
Cc1nn(C(C)(C)C)c(OC(=O)c2cccc(F)c2)c1Sc1ccccc1	-0.99
CCCCNc1nc2c(-c3cccc(C)c3)nnn2c2ccccc12	-1.49
COc1ccc(Cl)cc1NC(=O)CN(c1cc(C)cc(C)c1)S(=O)(=O)c1c(C)n[nH]c1C	-0.62
CCc1ccc(NC(=O)Cn2c(=O)n(Cc3ccc(C)cc3)c(=O)c3cccnc32)cc1	-2.04
CCC(NC(=O)CN1C(=O)NC(=O)C1(C)C)c1cn2cccnc2n1 (stereo not drawn)	0.55
Cc1cccnc1CC(=O)N1CCC(C(=O)N2CCOCC2)CC1	0.62
COc1ccc2c(C)c(CCC(=O)NCc3cccc(Cl)c3)c(=O)oc2c1	-1.04
Cc1ccc(Cl)cc1N1CCN(C(=O)c2ccc(CS(=O)(=O)c3ccccc3C)o2)CC1	1.08
CCN(CC)c1cc(C)c2cc(NC(=O)c3cccc(OC)c3)ccc2n1	-1.14
Cc1ccc(CNC(=O)CCCCCn2c(=O)c3sccc3n(CC(=O)Nc3ccc(C)c(F)c3)c2=O)cc1	0.51
O=C1CN(C(=O)c2c(F)cccc2Cl)C(c2ccc(F)cc2)c2cc(Br)ccc2N1 (stereo not drawn)	-0.89
O=C(NCCc1nc2ccccc2n1Cc1ccc(F)cc1)c1ccco1	-0.38
O=C(CCCCCn1c(=O)c2sccc2n(Cc2ccccc2Cl)c1=O)NCc1ccc2c(c1)OCO2	-1.47
COc1cc(-c2nnn(CC(=O)NCc3ccccc3)n2)cc(OC)c1OC	-0.37
Cc1cccc(Nc2nc(N)nc(N)c2S(=O)(=O)c2ccccc2)c1	-2.35
CC(C)CN(CCNC(=O)c1cn(C)c2ccc(S(=O)(=O)N3CCCC3)cc2c1=O)CC(C)C	0.53
COc1ccccc1CNS(=O)(=O)c1c(C)nc2scc(C)n2c1=O	-0.22
CC1=C(C(=O)Nc2ccccc2)C(CC(C)C)n2nc(SCc3ccccc3C)nc2N1 (stereo not drawn)	-2.37
CCOc1cc(OCC)cc(C(=O)Nc2cccc(-c3nc4ccccc4[nH]3)c2)c1	-2.2
COCc1c(C(C)C)nc(C(C)C)c(/C=C/[C@@H](O)C[C@@H](O)CC(=O)O)c1-c1ccc(F)cc1	-1.53
COc1ccc(C(=O)Nc2ccc3oc(-c4cccc5c(Br)cccc45)nc3c2)cc1	-2.05
CCc1cnc(N)nc1N(C)Cc1ccccc1CN1CCCC1	0.89
CCOC(=O)c1cnc2c(C)cc(C)cc2c1NCCc1ccc(OC)c(OC)c1	-1.5
CN(C)S(=O)(=O)N(CC(=O)NCCSc1ccccc1)c1ccccc1	-1.12
O=C(NCCCN1CCN(c2ccccc2)CC1)c1nnc(Cc2c(F)cccc2Cl)o1	-0.13
Cc1ccc2ncc(C(=O)NC(C)c3ccccc3)c(=O)n2c1 (stereo not drawn)	-0.2
COc1cccc(NC(=O)Cn2c(=O)n(CCc3ccccc3)c(=O)c3c4c(sc32)CN(C(C)=O)CC4)c1	-2.65
Cc1cccc(Oc2nc3c(C)cccn3c(=O)c2/C=C(\C#N)c2nc3ccccc3s2)c1	-0.69
CCCSc1ncc(Cl)c(C(=O)Nc2sc3c(c2C(=O)NCCOC)CCCC3)n1	-1.48
O=C(NCC1CCCN(Cc2ccco2)C1)c1cnccn1 (stereo not drawn)	-0.08
Cc1ccc(C)c(NC2=C(c3ccc(C(F)(F)F)cc3)C(=O)c3ccccc32)c1	0.58
COc1ccc(C(=O)c2c(N)c(C(=O)Nc3cccc(OC)c3)c3ccccn23)cc1	-0.03
CCOc1ccc2nc(N3CCC(C(=O)Nc4cc(C)ccc4C)CC3)sc2c1	-0.96
COc1ccc(N2CCN(CCCNC(=O)Nc3ccccc3)CC2)cc1	-0.87
CCCCN(CC)CCNC(=O)CN1C(=O)COc2ccc(S(=O)(=O)N3CCCC3)cc21	-0.8
COc1cccc(OC2CN(C(=O)Cn3nc4ccccc4n3)C2)c1	0.57
COc1ccc(C2CC(=O)c3cc(-c4nc(-c5ccc(C)cc5)cs4)c(=O)[nH]c3C2)cc1 (stereo not drawn)	-0.89
CCOCCC(=O)N1CCCC(c2nn(C)c(=O)n2-c2ccccc2)C1 (stereo not drawn)	-0.24
Cc1nc(SCC(=O)N2CCC(c3ncon3)CC2)n[nH]1	-0.12
COc1nnc(-c2ccc(N3CCCCC3)c(NC(=O)c3ccccc3)c2)c2ccccc12	-1.54

Bioassay records from PubChem BioAssay.
